Screens as filed in PubChem BioAssay.
Insulin prom inh = TRM-6 insulin promoter activity inhibition; TRM-6 cells (human fetal islet line), insulin promoter-eGFP reporter, imaging; reporter expression induced with tamoxifen; inhibition, % at 2 µM; 130,000 compounds, 0.9% hits; AID 1273;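 active = inhibition above the mean plus 3 SD, with well images judged a real hit on visual review, cut at about 60% in these data, passing the limit was not always enough; inconclusive = inhibition over the cutoff but images rejected on review; inactive = inhibition not above the cutoff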
RGS16-Gao = modulates binding between human RGS16 and Galphao; O15492+P09471; binding response (% of control), % at 10 µM; AID 1441; 220,000 compounds, 0.38% hits; bead-based flow cytometry RGS16-Galphao binding, fluorescence; actives lie on both sides;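 active = below 25% or above 175%, edge rows of some plates excepted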;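 also: Galphao activated by GDP with aluminum fluoride before binding; 100% = wells without compound and 0% = beads without RGS; some results beyond the cut were filed as inactive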
GALR2 agonist = GALR2 (human) receptor agonism | O43603 | GALR2-expressing cells, agonist activation read-out | activation, %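 (tested at 5 µM)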 | 140,000 compounds, 0.48% hits | AID 803;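 active = above mean plus 3 SD of all compounds, about 5% in these data, not always enough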;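 also: 0% = vehicle buffer wells and 100% = reference agonist at full effect; tested in CHO reporter cells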
HSV augment = increases HSV replication in cells | HSV replication augmentation in cells, fold increase | maximum fold increase | 220,000 compounds, 0.005% hits;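 active = peak rise of 1.5-fold or more in the series; inconclusive = self-fluorescent or not available for retest; tested in PC3 cells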;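 also: first round at 10 µM; read as green reporter fluorescence; hits show the peak of a series up to 25 µM; 1 = signal of infected wells without compound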
PKD1 kinase inh = inhibitors of human PKD1 kinase; PKD1 kinase fluorescence polarization assay; Q15139; inhibition, %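 (about 10 µM by stock and volumes)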; AID 797; 200,000 compounds, 0.056% hits;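 active = inhibition of 50% or more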;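 also: controls were vehicle for no effect and a reference inhibitor for full effect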
Target sequence (Q15139 whole entry, looked up): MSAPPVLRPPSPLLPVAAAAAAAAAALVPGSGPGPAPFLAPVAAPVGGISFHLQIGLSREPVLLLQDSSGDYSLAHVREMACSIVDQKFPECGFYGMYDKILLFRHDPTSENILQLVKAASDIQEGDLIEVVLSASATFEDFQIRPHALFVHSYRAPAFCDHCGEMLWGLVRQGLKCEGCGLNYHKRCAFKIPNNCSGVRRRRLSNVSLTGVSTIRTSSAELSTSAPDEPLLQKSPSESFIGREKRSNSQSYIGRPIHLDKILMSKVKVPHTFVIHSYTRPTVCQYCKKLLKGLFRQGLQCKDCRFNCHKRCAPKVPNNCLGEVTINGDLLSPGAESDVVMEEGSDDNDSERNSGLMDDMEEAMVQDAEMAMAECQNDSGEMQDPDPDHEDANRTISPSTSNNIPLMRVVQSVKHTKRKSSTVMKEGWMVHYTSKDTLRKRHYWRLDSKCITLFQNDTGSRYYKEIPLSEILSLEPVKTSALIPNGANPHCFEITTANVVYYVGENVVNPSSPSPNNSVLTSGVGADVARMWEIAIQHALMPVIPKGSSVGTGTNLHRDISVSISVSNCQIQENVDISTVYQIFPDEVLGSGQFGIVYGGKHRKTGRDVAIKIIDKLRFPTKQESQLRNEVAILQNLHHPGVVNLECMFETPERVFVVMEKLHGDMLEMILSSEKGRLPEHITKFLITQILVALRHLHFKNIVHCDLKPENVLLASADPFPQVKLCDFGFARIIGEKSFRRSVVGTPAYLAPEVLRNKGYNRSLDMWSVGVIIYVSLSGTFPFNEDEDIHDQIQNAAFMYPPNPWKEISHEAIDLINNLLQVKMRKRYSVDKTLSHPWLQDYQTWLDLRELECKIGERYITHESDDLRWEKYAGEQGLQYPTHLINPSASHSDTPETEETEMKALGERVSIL
Insulin prom inh cell count = also measured in Insulin prom inh; calls as there; normalized cell count, %; measured here: cell count, toxicity; reference of the scale not given here;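 cells exposed to compound for 48 h; stained nuclei by imaging scaled within each plate; lower means fewer cells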
HSV augment primary fold = also measured in HSV augment; calls as there; fold increase; compound at 10 µM; measured here: primary screen fold increase 10 uM; tested in PC3 cells;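 GFP signal in the first replicate; 1 = infected wells without compound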
* hit, by the source's call; i = inactive; ? = inconclusive; . = not tested or not shown. Outcome played no part in choosing rows. About 1.3% of those tested had a hit in this group.

SMILES | Insulin prom inh | Insulin prom inh cell count | RGS16-Gao | GALR2 agonist | HSV augment | HSV augment primary fold | PKD1 kinase inh
CCS(=O)(=O)Nc1cccc(C2=NN(S(=O)(=O)c3ccc(C)cc3)C(c3cccs3)C2)c1 (centres undefined) | . | . | 104 | 0.1 | i | 0.86 | 12
Cc1c(Cl)cccc1NC(=O)C1Cc2ccccc2CN1C(=O)c1ccccc1 (centres undefined) | . | . | 96 | -0.8 | i | 0.91 | 10
COc1ccc2[nH]cc(C(=O)CN3CCCC(C)C3)c2c1 (centres undefined) | -34 | 98 | 101 | -2.6 | i | 0.93 | -3
CC(C)[C@H](NS(=O)(=O)c1ccccc1)C(=O)OCC(=O)NC(=O)c1cccn1C | -54 | 102 | 103 | -1.6 | i | 0.99 | -2
Cn1cccc1C(=O)NC(=O)COC(=O)C12CC3CC(CC(O)(C3)C1)C2 | 9 | 124 | 100 | -2.1 | i | 0.97 | -5
O=C(NC(=S)NCc1ccccc1)c1cccnc1 | 7 | 125 | 101 | . | i | 0.98 | 10
CC(=O)NCCC(=O)Nc1sc2c(c1-c1nc3ccccc3[nH]1)CCCC2 | -40 | 116 | 93 | -0.5 | i | 1 | 4
CCC1CCCCN1C(=S)NC(=O)c1ccc([N+](=O)[O-])cc1 (centres undefined) | . | . | 106 | -1.4 | i | 0.95 | -12
CCN(CC(=O)NCc1cccs1)C(=O)c1ccccc1F | . | . | 99 | . | i | 1.1 | 0
CCCOc1ccc(-c2nnn(CC(=O)N3CCC(C)CC3)n2)cc1 | . | . | 107 | -2.2 | i | 0.96 | 0
CCOC(=O)c1c(-c2ccco2)csc1NC(=O)CSc1nnc(N)s1 | 49 | 117 | 106 | -1.6 | . | . | -2
O=C(CNCc1cccs1)Nc1cc(S(=O)(=O)N2CCCC2)ccc1Cl | . | . | 101 | . | i | 1.1 | .
COc1ccc(NC(=O)CCN2CCCC(C)C2)cc1 (centres undefined) | -21 | 73 | 105 | -2.6 | i | 1 | -6
CCC(C)NC(=O)CNC(=S)N(CCCN1CCOCC1)Cc1cccs1 (centres undefined) | 28 | 109 | 105 | -0.7 | i | 0.93 | -1
CCn1ncc(/C=C/C(=O)NCc2cnn(C)c2C)c1C | -42 | 84 | 105 | 0.3 | i | 0.92 | -4
COc1cccc(C2C(C(C)=O)=C(O)C(=O)N2CCc2c[nH]c3ccccc23)c1 (centres undefined) | -29 | 133 | 100 | -1.4 | i | 1.2 | -12
CNC(=O)c1ccc(OC2CSC2)cc1 | 21 | 77 | 108 | -1.2 | i | 0.89 | 9
Cc1c(Cl)cccc1NC(=O)CCCN1C(=O)CCC1=O | 29 | 58 | 95 | -2.8 | . | . | 1
COc1nc(-c2ccccc2)nnc1-c1ccccc1 | . | . | 98 | . | i | 1.1 | -5
CCOCC(=O)Nc1cc(Cl)c(OC)cc1OC | . | . | 97 | . | i | 1.1 | 0
C#CC(=O)N(c1ccc(OC)c(OC)c1)C(C(=O)NC1CCCC1)c1cccs1 (centres undefined) | -212 | 2 | 75 | -1.7 | i | 0.43 | 7
Cc1cc(C)c(-c2cc(C(=O)Nc3c(C)n(C)n(-c4ccccc4)c3=O)[nH]n2)c(O)c1 | 11 | 114 | 77 | -1.8 | i | 0.94 | -1
NC(=O)C1CCN(CC(=O)Nc2ccccc2N2CCOCC2)CC1 | . | . | 86 | . | i | 1 | .
O=C(Cn1c(-c2cncs2)nc2ccccc21)NC1CCCC1 | -156 | 54 | 99 | -0.1 | . | . | -6
COc1cccc(CN(CC(=O)NC2CCCC2)C(=O)CCC(=O)Nc2cc(C)on2)c1 | -41 | 128 | 104 | -2.2 | . | . | 5

Next part
SMILES | Insulin prom inh | Insulin prom inh cell count | RGS16-Gao | GALR2 agonist | HSV augment | HSV augment primary fold | PKD1 kinase inh
CC(=O)Nc1ccc(C(=O)OCc2ccc(F)cc2)cc1 | 10 | 162 | 110 | . | i | 1 | 0
CN(C)C(=O)C12CCC(C)(c3nc4ccccc4nc31)C2(C)C (centres undefined) | 37 | 145 | 109 | -1.5 | i | 0.83 | 0
CCOc1[nH]n(-c2ccccc2)c(=O)c1C=Nc1ccc(F)cc1F | . | . | 100 | . | i | 0.95 | -9
CC(C)(C)[C@@H]1C=C(C(=O)NCc2ccccc2)O[C@H](OCc2ccc(CO)cc2)C1 | . | . | 99 | . | . | . | 0
COc1ccc(OC)c(N)c1 | -18 | 100 | 96 | 0.3 | . | . | -4
Cc1ccc(C(=O)NCCc2nc3ccccc3[nH]2)cc1[N+](=O)[O-] | 25 | 68 | 137 | -0.8 | i | 1.1 | -11
CC(=O)c1cc(-c2ccccc2)n(CCC(=O)NC2CCC(C)CC2)c1C (centres undefined) | 0 | 85 | 108 | -0.8 | i | 1 | 7
CC(NC(=O)c1cc(S(=O)(=O)N(C)C)ccc1N1CCCC1)C1CC2CCC1C2 (centres undefined) | -44 | 86 | 86 | . | i | 1 | -5
CN(c1cccc(Cl)c1)S(=O)(=O)c1cccc(C(=O)NC2=NCCS2)c1 | -21 | 77 | 105 | 0.0 | i | 1.1 | 9
CCN(CCn1cccn1)C(=O)CC1C(=O)NCCN1Cc1cc(OC)cc(OC)c1 (centres undefined) | . | . | 100 | . | i | 1 | 0
CC(C)Cc1nc2ccc(N)cc2[nH]1 | 18 | 100 | 103 | . | i | 1.1 | -8
CCCNS(=O)(=O)c1ccc(CCC(=O)Nc2cc(Cl)ccc2Oc2ccccc2)cc1 | . | . | . | -0.6 | i | 1.1 | 1
CCOc1cc(N2CCOCC2)c(OCC)cc1NC(=O)C1CCCC1 | 4 | 164 | 98 | -1.4 | i | 0.92 | -7
CCOc1cc(C)c(C(C)C)cc1S(=O)(=O)n1cnc(C)c1 | . | . | 104 | . | i | 0.96 | -6
CCOc1ccc(CN2CCN(Cc3nc(C(C)C)cs3)CC2CCO)cc1 (centres undefined) | . | . | 107 | . | i | 1.3 | 3
O=C1CSC(c2ccncc2)N1Cc1ccco1 (centres undefined) | . | . | 85 | -2.4 | i | 0.93 | -5
COc1ccc(CCNC(=O)COc2nsnc2N2CCOCC2)cc1OC | . | . | 96 | -1.2 | i | 0.84 | 4
O=c1cc(-c2ccccc2)c2c([nH]1)CCCC2 | . | . | 106 | -3.3 | i | 0.98 | 1
Cc1cccc(C)c1NC(=O)CSc1nnnn1C | 43 | 126 | 68 | -1.9 | i | 0.93 | -3
O=C(O)c1ccccc1S(=O)(=O)Cc1ccccc1 | 16 | 124 | 117 | -1.2 | i | 1.1 | -7
Cc1cc(-c2cc(N)n(-c3ccccc3)n2)c(C)n1C1CCCC1 | . | . | 90 | -0.1 | i | 0.81 | 4
CS(=O)(=O)NCCCNc1c(Cl)cccc1[N+](=O)[O-] | 74* | 53* | 103 | -1.6 | i | 0.96 | -4
COc1ccc(F)cc1C(=O)C1CCCN(Cc2cnc(N3CCCC3)s2)C1 (centres undefined) | . | . | 100 | . | i | 0.99 | -9
O=C(c1nn(-c2ccccc2)c(=O)c2ccccc12)N1CCN(c2ccccn2)CC1 | 35 | 62 | 102 | -2.0 | i | 0.95 | -12
COC(=O)c1sc(C(F)(F)F)c(-c2ccccc2)c1S(=O)(=O)N(C)C | . | . | 100 | . | i | 1.1 | .

Given in markdown: 6 of the compounds above
| Molecule | Insulin prom inh | Insulin prom inh cell count | RGS16-Gao | GALR2 agonist | HSV augment | HSV augment primary fold | PKD1 kinase inh |
| --- | --- | --- | --- | --- | --- | --- | --- |
| CCCOc1ccc(-c2nnn(CC(=O)N3CCC(C)CC3)n2)cc1 | . | . | 107 | -2.2 | i | 0.96 | 0 |
| Cc1cc(-c2cc(N)n(-c3ccccc3)n2)c(C)n1C1CCCC1 | . | . | 90 | -0.1 | i | 0.81 | 4 |
| COc1ccc(F)cc1C(=O)C1CCCN(Cc2cnc(N3CCCC3)s2)C1 (centres undefined) | . | . | 100 | . | i | 0.99 | -9 |
| CN(C)C(=O)C12CCC(C)(c3nc4ccccc4nc31)C2(C)C (centres undefined) | 37 | 145 | 109 | -1.5 | i | 0.83 | 0 |
| CC(=O)Nc1ccc(C(=O)OCc2ccc(F)cc2)cc1 | 10 | 162 | 110 | . | i | 1 | 0 |
| COc1cccc(C2C(C(C)=O)=C(O)C(=O)N2CCc2c[nH]c3ccccc23)c1 (centres undefined) | -29 | 133 | 100 | -1.4 | i | 1.2 | -12 |

Three entries already listed, sorted by count of non-hydrogen atoms, smallest number first.
SMILES | Insulin prom inh | Insulin prom inh cell count | RGS16-Gao | GALR2 agonist | HSV augment | HSV augment primary fold | PKD1 kinase inh
CCOCC(=O)Nc1cc(Cl)c(OC)cc1OC | . | . | 97 | . | i | 1.1 | 0
CCOc1cc(C)c(C(C)C)cc1S(=O)(=O)n1cnc(C)c1 | . | . | 104 | . | i | 0.96 | -6
COc1ccc(F)cc1C(=O)C1CCCN(Cc2cnc(N3CCCC3)s2)C1 (centres undefined) | . | . | 100 | . | i | 0.99 | -9

Carrying on.
SMILES | Insulin prom inh | Insulin prom inh cell count | RGS16-Gao | GALR2 agonist | HSV augment | HSV augment primary fold | PKD1 kinase inh
O=C(O)C(Cc1c[nH]c2ccccc12)NS(=O)(=O)c1ccccc1 (centres undefined) | -338 | 71 | 50 | -1.7 | i | 1.1 | -17
CCOC(=O)C1CCCN(Cc2ccccc2F)C1 (centres undefined) | 52 | 117 | 82 | -0.2 | i | 1.1 | -1
COc1cc(C(=O)OCC(=O)N2CCCC2)cc(OC)c1OC | -57 | 127 | 100 | 0.2 | i | 1.1 | -3
O=C(CSc1nnc(SCc2ccc(Cl)cc2)s1)N/N=C/c1ccccc1Cl | . | . | 103 | -0.6 | . | . | -2
CCOc1cc(C2C(C(C)=O)=C(O)C(=O)N2CCc2c[nH]c3ccccc23)ccc1O (centres undefined) | -6 | 125 | 105 | . | i | 1 | -6
Cc1ccnc2nc(C(=O)Nc3nc(-c4ccccn4)cs3)nn12 | . | . | 98 | . | i | 0.91 | 5
COC(=O)c1c(-c2c(Cl)cccc2Cl)noc1NC(=O)N(C)C | . | . | 101 | . | i | 0.95 | .
COc1ccc2[nH]c(=O)c(CN(Cc3ccco3)C(c3nnnn3Cc3ccccc3)C(C)C)cc2c1 (centres undefined) | 16 | 39 | 90 | -4.0 | i | 0.79 | -3
COc1ccc2c(c1)CCc1c(C(=O)Nc3ccc(OC)c(OC)c3)noc1-2 | -27 | 84 | 103 | -2.7 | i | 0.84 | 16
CC(C)CCNC(=O)c1cccnc1Sc1ccccc1 | 24 | 108 | 47 | -1.1 | i | 0.91 | 4
COc1ccc(NC(C)=O)cc1S(=O)(=O)N1CCc2ccccc21 | . | . | 102 | . | i | 1 | 2
CCCn1nnnc1SCC(=O)c1ccc2c(c1)OCCO2 | -46 | 55 | 100 | 0.6 | i | 0.95 | -3
N#Cc1ccc(/C=N/NC(=S)Nc2ccc(S(=O)(=O)N3CCOCC3)cc2)cc1 | . | . | 100 | . | i | 0.88 | .
CCCCCn1nc(-c2ccccc2)c2nc3ccccc3nc21 | 20 | 151 | 93 | -1.7 | ? | . | -8
CCOC(=O)Cc1cc(-c2ccc(F)cc2)nc2ccc3ccccc3c12 | 28 | 122 | 111 | 0.3 | i | 1 | -3
COCc1cc(C)n(CC(=O)Nc2cc(C)cc(C)c2)c(=O)c1C#N | . | . | 113 | . | i | 0.81 | 2
Cc1ccc(S(=O)(=O)/N=C(/Nc2c(C)n(C)n(-c3ccccc3)c2=O)c2ccccc2)cc1 | -3 | 119 | 137 | -0.6 | i | 1 | 4
CCOC(=O)N1CCN(C(=O)CS(=O)(=O)c2cn(Cc3ccccc3Cl)c3ccccc23)CC1 | . | . | 108 | -0.3 | i | 0.85 | -11
S=C(NCCc1ccccc1)N1CCN(C23CC4CC(CC(C4)C2)C3)CC1 | . | . | 92 | . | i | 0.84 | 2
CC(C)(C)CC(C)(C)N=C1NS(=O)(=O)c2cc([N+](=O)[O-])ccc21 | -128 | 57 | 99 | . | i | 1.1 | 0
Cc1nn(Cc2ccccc2)c(C)c1NC(=O)c1ccc([N+](=O)[O-])cc1[N+](=O)[O-] | -26 | 113 | 104 | -0.5 | i | 0.76 | -2
CN(/C(=N/S(=O)(=O)c1ccccc1)c1ccccc1)S(=O)(=O)c1ccccc1 | 17 | 136 | 115 | -0.1 | i | 0.88 | 7
CC(C)(C)c1ccc(C(=O)C=[N+]=[N-])cc1 | . | . | 102 | -2.6 | i | 0.92 | 14
